Source: PubChem BioAssay (ICCB-Longwood Screening Facility, Harvard Medical School)
MenB inh: inhibitors of Mycobacterium tuberculosis MenB enzyme; inhibition, %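 (about 12 µg/mL by stock and volumes)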; AID 540299; P9WNP5; actives 0.43% (n = 100,000); MenB enzyme assay, absorbance read-out; some hits fall short of the stated cut;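 active = mean of two replicates above 30%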;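 also: 0% = no compound and 100% = wells with inactive enzyme; the first replicate is given; strong numbers were not always called active; inactives centre near -10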
Target sequence (P9WNP5 whole entry, looked up): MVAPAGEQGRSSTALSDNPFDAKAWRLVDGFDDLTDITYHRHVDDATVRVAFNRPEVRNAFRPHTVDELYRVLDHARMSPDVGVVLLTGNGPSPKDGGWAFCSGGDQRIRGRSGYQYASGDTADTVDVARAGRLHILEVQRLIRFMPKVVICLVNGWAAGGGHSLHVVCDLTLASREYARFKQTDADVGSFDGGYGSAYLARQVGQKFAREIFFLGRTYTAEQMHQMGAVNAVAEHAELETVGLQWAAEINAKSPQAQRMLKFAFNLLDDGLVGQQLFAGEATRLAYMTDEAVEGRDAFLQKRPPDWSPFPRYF
Mtb MbtI inh: MbtI salicylate synthase inhibition; P9WFX0; purified MbtI enzyme, fluorescence intensity read-out; inhibition, %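 (about 17 µg/mL by stock and volumes)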; actives 0.89% (n = 100,000);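 active = above 50% in both replicates, above 80% if mildly self-fluorescent; inactive = the rest, strongly fluorescent compounds included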;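 also: 0% = mean of negative and 100% = mean of positive controls; one replicate is shown; some compounds called inactive have numbers as strong as hits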
PV pol inh: poliovirus RNA polymerase inhibition; P03300; poliovirus polymerase elongation, fluorescence polarization; stronger effect = lower value; % elongation, % (compound at 16.7 µg/mL); actives 0.66% (n = 150,000); AID 588519; in the data active = % elongation below about 90%; also: some results filed as inactive read as strong as hits
Target sequence (P03300 1749-2209 limits assumed): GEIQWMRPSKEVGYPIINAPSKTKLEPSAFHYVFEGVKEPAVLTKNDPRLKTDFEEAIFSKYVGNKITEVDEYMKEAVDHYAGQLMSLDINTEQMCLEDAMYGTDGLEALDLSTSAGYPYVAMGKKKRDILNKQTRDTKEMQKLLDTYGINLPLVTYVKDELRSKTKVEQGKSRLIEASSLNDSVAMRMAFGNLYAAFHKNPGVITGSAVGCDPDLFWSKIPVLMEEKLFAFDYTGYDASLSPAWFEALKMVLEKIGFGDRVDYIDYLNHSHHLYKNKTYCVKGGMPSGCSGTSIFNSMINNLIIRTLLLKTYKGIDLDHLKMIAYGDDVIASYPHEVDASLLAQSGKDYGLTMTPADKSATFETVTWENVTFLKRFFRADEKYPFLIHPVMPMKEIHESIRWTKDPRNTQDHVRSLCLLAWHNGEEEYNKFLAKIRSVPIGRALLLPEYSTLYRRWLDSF
PV pol inh intensity: further read-out of PV pol inh, marked with its call; % elongation; measured here: total intensity read-out; formula for this scale not given here;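 total fluorescence in place of polarization; lower means less elongation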
The depositor's hits bear a star; i = inactive; / = not tested or not shown; & = joins results of further samples. Rows were taken by chance (roughly 1.7% active in at least one column).

SMILES	MenB inh	Mtb MbtI inh	PV pol inh	PV pol inh intensity
COCCNC(=O)c1nc2c(nnn2Cc2cc(C)ccc2C)c(=O)[nH]1	-8	-3	101	102
COCc1cc(=O)[nH]c(-c2ccc(C(F)(F)F)cn2)n1	-11	17	107	103
O=C(NCc1cccnc1)c1cc(Nc2cccc(C(F)(F)F)c2)nc2ccccc12	-29	44	103	103
CCn1cc(C(=O)O)c(=O)c2cc(F)c(N3CCN(C(C)=O)CC3)cc21	-10	107	109	113
O=C(CCc1nc2ccccc2o1)Nc1cccc(-n2cnnn2)c1	-12	-12	106	111
Nc1cccc[n+]1CC(=O)[O-]	-9	102	102	107
Cn1nnc2cc(NC(=O)NCc3ccco3)ccc21	-27	14	99	101
C#CCNC(=O)Nc1ccccc1OC	9	19	107	97
CCOc1ccc(N2C(=O)CN(CC(=O)OC)C2=S)cc1	-30	-1	101	100
COc1ccc2nc(N3CCCCC3)c(/C=C3\SC(=S)NC3=O)cc2c1	-6	8	103	100
O=C(CCCn1sc2ccccc2c1=O)NCc1cccs1	-13	82*	105	104
CCOC(=O)c1sc(Nc2ccc(C)cc2C)nc1C	-6	50	99	101
CN1C(=S)N(c2ccc(Cl)cc2)C(=O)/C1=C/c1ccccc1O	-107	7	102	108
COc1cc(NC(=O)C(C)OC(=O)C23CC4CC(CC(NC(C)=O)(C4)C2)C3)cc(OC)c1 (configuration not stated)	5	7	101	101
Nc1ccc2c(c1)OC1(CCCCC1)O2	-3	-71	102	102
c1cncc(-c2noc(-c3cccs3)n2)c1	3	9	102	104
COc1ccccc1NC(=O)COC(=O)Cc1cccc2ccccc12	/	0	101	105
CN(C)CC#CC1(O)CCCCC1	-12	/	105	103
O=C(NCCN1CCOCC1)Nc1ccccc1-c1ccccc1	-9	-16	106	104
CSc1nc(-c2ccco2)cc(C(F)(F)F)c1C#N	-10	/	109	115
O=C(CN1CCOCC1)NNc1nc(-c2ccccc2)c2cc(Cl)ccc2n1	-35	-18	103	100
CCCCCCCCCCCCCCCC(=O)C1=C(O)C(CO)OC1=O (configuration not stated)	-7	-10	100&99	103&101
COC(=O)C(C)Sc1ncnc2c1cnn2-c1ccccc1 (configuration not stated)	-4	-4	100	102
COc1cccc(C(O)c2nc3ccccc3n2C(C)C)c1OC (configuration not stated)	7	-2	100	100
O=C1/C(=C/C2CCCCC2)CCCc2ccccc21	-9	-15	106	111
Going on with the list.
SMILES	MenB inh	Mtb MbtI inh	PV pol inh	PV pol inh intensity
CN(C)C(CNC(=O)c1ccccc1C(F)(F)F)c1ccco1 (configuration not stated)	-25	-8	/	/
COC(=O)c1ccccc1NC(=O)c1ccoc1C	-3	-100	100	105
Cc1csc2nc(CSc3nnc(-c4cc5c(s4)CCC(C)C5)o3)cc(=O)n12 (configuration not stated)	-42	-3	99	105
CCC(=O)N1c2ccccc2-c2nnc(SC)nc2OC1c1ccccc1F (configuration not stated)	-18	1	103	105
CC(=O)NC1C(OCc2ccccc2)OC(CO)C(O)C1OCc1ccccc1 (configuration not stated)	-24	3	101	102
CCn1nccc1C(=O)Nc1ccc(Cl)cc1Cl	8	0	100	101
COc1ccc(C2=NOC(C(=O)N3CCN(C)CC3)C2)cc1 (configuration not stated)	-15	0	101	103
CC(Sc1nc(-c2ccccc2)c(C#N)c(=O)[nH]1)C(=O)Nc1ccccc1 (configuration not stated)	-22	-46	103	100
CCOC(=O)c1c(C2CC2)csc1N	/	3	102	102
NC(=O)CSc1nnnn1-c1ccccc1	-8	/	106	116
Cc1cnc(SCc2cnc(C)nc2N)nc1	-11	3	100	100
CC1CCCC(C)N1C(=O)COC(=O)CCc1ccccc1 (configuration not stated)	/	-1	102	98
CC1=C(C(=O)N(C)C)C(c2ccccc2C(F)(F)F)NC(=O)N1 (configuration not stated)	-21	-2	97	95
O=C(O)CCc1ccco1	0	-2	98	101
Cc1ccc(Cn2c(CNC(=O)c3ccccc3)nc3ccccc32)cc1	-2	-5	/	/
O=C(NCCC(=O)N1CCN(C(=O)c2cccs2)CC1)Nc1ccccc1	0	1	102	106
O=C(N1CCCc2ccccc21)C(F)(F)F	-8	-11	109	110
O=c1[nH]c(CSc2ncccn2)nc2ccccc12	-23	5	105	98
CN=C1S/C(=C\c2ccc(N3Cc4ccccc4C3)cc2)C(=O)N1C	-24	-15	103	98
COc1ccc(CC(=O)N2CCCc3ccccc32)cc1	-30	10	104	105
O=C(c1ccc(Cn2c(=S)[nH]c3ccc(N4CCOCC4)cc3c2=O)cc1)N1CCC(N2CCCCC2)CC1	12	4	100	97
CC1CCCCN1S(=O)(=O)c1cn(C)c(=O)n(C)c1=O (configuration not stated)	8	1	99	102
CCOC(=O)N1CCC(=Nn2c(CC)n[nH]c2=S)CC1	-2	-4	100	109
O=S(=O)(c1ccc(NC(=S)Nc2ccc3c(c2)OCO3)cc1)N1CCOCC1	6	24	99	103
CN1C(CC(O)c2ccccc2)CCCC1CC(O)c1ccccc1 (configuration not stated)	-6	-11	100	101
Remaining list, next part:
SMILES	MenB inh	Mtb MbtI inh	PV pol inh	PV pol inh intensity
O=C(O)c1cncc(O)c1	-7	i	99	99
CC1CCN(C(=O)Cn2cnc3c(cnn3-c3ccccc3)c2=O)CC1	-77	0	103	98
COc1ccccc1NC(=O)c1c(C)nc(SCC(=O)OC(C)C)c(C#N)c1-c1ccco1	-36	-2	104	109
Brc1cc(Br)c2c(c1)C=C1CCCCCC1(N1CCOCC1)O2 (configuration not stated)	-4	-5	99	100
Cc1cccc(-n2[nH]nnc2=S)c1	6	/	95	100
CCOC(=O)c1cn2c3c(ccc(C)c3c1=O)OC(CC)C2 (configuration not stated)	-1	104	104	102
O=C(CSc1nnc(CNC(=O)c2ccccc2F)o1)Nc1ccc2c(c1)OCCO2	-27	6	104	100
Cc1ccc(-c2nnn(CCOc3ccccc3Cl)n2)cc1	-22	-16	102	108
CN=c1scc(-c2c(-c3ccccc3)n(C)c3ccccc23)n1C	-5	2	100	97
CN1CCN(NC(=O)c2ccc(Cl)cc2)CC1	-24	-26	100	102
CCCOC(=O)c1ccc2c(c1)C(=O)N(c1ccccc1)C2=O	-17	-15	99	100
CC(=O)N1CCN(S(=O)(=O)c2cccc(C(=O)OCC(=O)N3N=C(c4ccc(C)cc4)CC3c3ccco3)c2)CC1 (configuration not stated)	4	4	108	106
S=c1nc(CCCCc2nc(=S)[nH][nH]2)[nH][nH]1	8	72*	75*	73*
CCOC(=O)N1CCC(Nc2nc3ccccc3c3nnc(C)n23)CC1	-34	6	104	96
COC(=O)/C(=C/N(C)C)NC(=O)c1ccccc1	6	19	102	95
O=C1COc2ccc(C(=O)COC(=O)c3cccc(S(=O)(=O)N4CCCCC4)c3)cc2N1	6	4	101	105
N/C(Cc1nc(-c2ccc(Cl)cc2)cs1)=N\O	-9	-1	107	97
COc1cccc(CN(C)C(=O)c2ccc3c(c2)NC(=O)CS3)c1	-9	2	99	94
COc1ccccc1CNC(=O)c1cccc(F)c1	13	5	103	96
CC1CCN(CC(=O)c2ccc(OC(F)F)cc2)CC1	-20	10	102	110
Cc1ccc(N2C(=S)NC3c4cc(Cl)ccc4OC2(C)C3C(=O)Nc2ccc(C)cc2C)cc1 (configuration not stated)	-29	-1	102	97
CC(=O)Nc1ccc(NC(=O)c2cccc(N(C)C)c2)cc1	-14	-11	100	107
Cn1c(N)c(C(=O)CSc2nnc(C3CC3)n2-c2ccccc2)c(=O)[nH]c1=O	0	-4	100	99
Cc1noc2ncn(CC(=O)N3CCC(C)CC3)c(=O)c12	-4	-11	102	101
CC(C)NC(=O)c1ccc(CS(=O)c2ccc(Cl)cc2)o1 (configuration not stated)	1	14	102	98
Carrying on.
SMILES	MenB inh	Mtb MbtI inh	PV pol inh	PV pol inh intensity
O=C(NCCc1c[nH]c2ccccc12)c1ccccn1	-22	-13	102	100
Cc1cc(N2CCCC(C(=O)O)C2)n2cnnc2n1 (configuration not stated)	-53	7	102	101
COc1ccc(N(C)C(=O)c2noc3c2COc2ccccc2-3)c(OC)c1	-10	-20	102	101
COCCn1c(C)cc(C=C2C(=O)NC(=O)NC2=O)c1C	-7	10	101	100
Cc1n[nH]c(C)c1CC(=O)O	-4	-3	100	104
O=c1ccc(-c2cccs2)nn1Cc1ccccc1	-14	-11	103	110
O=C(Nc1ccccc1)C1CC=CCC1C(=O)OCC1CCCO1 (configuration not stated)	0	/	111	112
Cc1nc2cc(-c3ccccc3)nn2c(C)c1CCC(=O)N1CCN(c2ccccn2)CC1	-21	8	101	100
CC(C)CC1CCCCC1OC(=O)C[N+]1(C)CCCCC1 (configuration not stated)	-5	-8	102	100
CCN1CCN(C(=O)c2ccccc2F)CC1	/	-6	102	96
O=C(CSc1nnc(-c2ccc3c(=O)n4c(nc3c2)CCCCC4)o1)c1c[nH]c2ccccc12	-7	29	105	109
O=C(O)c1cccc(S(=O)(=O)NCC2CCCO2)c1 (configuration not stated)	-14	-9	100	100
O=C1CC(c2ccccc2)CC(O)=C1C=NCC1CCCO1 (configuration not stated)	12	16	101	102
Cc1oc(-c2cccc(Cl)c2)nc1CN1CCCC(C(=O)NC2CCCc3ccccc32)C1 (configuration not stated)	-26	5	103	105
Cc1ccc(C)c(N2CCN(c3cnn(-c4nc5ccccc5o4)c(=O)c3Cl)CC2)c1	10	-8	100	104
N#Cc1ccc(Oc2ccc(C#N)cc2)cc1	2	-13	98	106
CCC(=O)NC(O)C(=O)c1ccc(C)cc1 (configuration not stated)	-9	13	101	94
COc1ccc(C2C(C(=O)Nc3cnc4ccccc4c3)c3ccccc3C(=O)N2C)cc1 (configuration not stated)	-23	3	102	102
COc1ccc(-c2nnc(SCc3nnc(-c4ccccc4)o3)o2)cc1OC	26	-5	102	102
COc1ccc(-c2cc(C(F)(F)F)nc(SCC(N)=O)n2)cc1	-3	105	101	102
CC1CCC(N(C)Cc2nc3ccc(Cl)cc3n2CCO)CC1 (configuration not stated)	-3	-9	102	106
Cc1ccc2nc3c(c(C(=O)OC4CCOC4=O)c2c1)CCCC3 (configuration not stated)	-13	104	108	109
CCC(=O)c1cn(CC(=O)N2CCc3ccccc32)c2ccccc12	-14	/	104	113
N#Cc1cn(CCCOc2ccccc2)c2ccccc12	-19	/	101	103
CC(C)c1cc(=O)[nH]c(SCc2nc(-c3ccccc3)no2)n1	-25	-3	101	102

Random excerpt: 5 records from the list
SMILES	MenB inh	Mtb MbtI inh	PV pol inh	PV pol inh intensity
COCCn1c(C)cc(C=C2C(=O)NC(=O)NC2=O)c1C	-7	10	101	100
Cc1n[nH]c(C)c1CC(=O)O	-4	-3	100	104
O=C(O)c1cccc(S(=O)(=O)NCC2CCCO2)c1 (configuration not stated)	-14	-9	100	100
O=C(NCCc1c[nH]c2ccccc12)c1ccccn1	-22	-13	102	100
N#Cc1ccc(Oc2ccc(C#N)cc2)cc1	2	-13	98	106

Further compounds
SMILES	MenB inh	Mtb MbtI inh	PV pol inh	PV pol inh intensity
CCN1CCN(C(=O)Cn2nc(C)c3sc4ccccc4c3c2=O)CC1	18	22	100	102
Cc1cc(C#N)c2c(c1)-c1ccccc1CC2	-12	-7	102	107
CC1(N2CCOCC2)CC2(O)C(=[N+]1[O-])CCC/C2=N\O (configuration not stated)	-33	-3	101	103
Cc1ccc(-c2csc(NC(=O)C3(c4ccccc4)CC3)n2)s1	-37	0	106	107
CC1=NN(c2ccc(C)cc2)C(=O)C1	-135	3	103	100
CCC(SC1=Nc2ccccc2C2=NC(c3ccccc3)C(=O)N12)C(=O)Nc1cccc(OC)c1 (configuration not stated)	-31	-2	103	107
NC(=O)C1CCN(C(=O)/C=C/c2cccc(Cl)c2)CC1	-8	-1	98	104
O=C(CC(NCc1ccccc1)C(=O)O)NC1CCCCC1 (configuration not stated)	2	-6	102	102
CCSc1nc(SCC)c2c3c([nH]c2n1)CCCC3	0	i	103	105
O=C(OCc1ccccc1)c1cnc(Sc2ccc(Cl)cc2)nc1C(F)(F)F	-30	0	100	97
O=C(Nc1nn[nH]n1)C1CCCCC1	-18	/	96	88
CCN(CC)S(=O)(=O)c1cc(C(=O)NC2CC2)ccc1Cl	/	-2	102	105
N#Cc1ccc(OCC(=O)N2CCCCC2)cc1	4	-15	101	103
CCOC(=O)CSc1nc2ccccc2o1	-11	4	98	94
CCOC(=O)N1CCN(c2nc(-c3ccccc3)cc(C(F)(F)F)n2)CC1	2	-2	100	104

By substructure, the compounds so far containing a cyano group.
SMILES	MenB inh	Mtb MbtI inh	PV pol inh	PV pol inh intensity
CSc1nc(-c2ccco2)cc(C(F)(F)F)c1C#N	-10	/	109	115
CC(Sc1nc(-c2ccccc2)c(C#N)c(=O)[nH]1)C(=O)Nc1ccccc1 (configuration not stated)	-22	-46	103	100
COc1ccccc1NC(=O)c1c(C)nc(SCC(=O)OC(C)C)c(C#N)c1-c1ccco1	-36	-2	104	109
N#Cc1ccc(Oc2ccc(C#N)cc2)cc1	2	-13	98	106
N#Cc1cn(CCCOc2ccccc2)c2ccccc12	-19	/	101	103
Cc1cc(C#N)c2c(c1)-c1ccccc1CC2	-12	-7	102	107
N#Cc1ccc(OCC(=O)N2CCCCC2)cc1	4	-15	101	103
